Screening data as filed in PubChem.
HSV augment: increases HSV replication in cells. maximum fold increase. HSV replication augmentation in cells, fold increase. hit rate 0.005% among 220,000;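 active means peak rise of 1.5-fold or more in the series; inconclusive means self-fluorescent or not available for retest; tested in PC3 cells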;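 further: first round at 10 µM; read as green reporter fluorescence; hits show the peak of a series up to 25 µM; 1 = signal of infected wells without compound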
INS promoter inh: TRM-6 insulin promoter activity inhibition; TRM-6 cells (human fetal islet line), insulin promoter-eGFP reporter, imaging; reporter expression induced with tamoxifen; inhibition, % at 2 µM; hit rate 0.9% among 130,000;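 active means inhibition above the mean plus 3 SD, with well images judged a real hit on visual review, cut at about 60% in these data, passing the limit was not always enough; inconclusive means inhibition over the cutoff but images rejected on review; inactive means inhibition not above the cutoff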
PKD1 kinase inh: blocks activity of human protein kinase D1 | Q15139 | PKD1 kinase fluorescence polarization assay | inhibition, %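 (about 10 µM by stock and volumes)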 | hit rate 0.056% among 200,000 | AID 797;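 active means inhibition of 50% or more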;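 further: controls were vehicle for no effect and a reference inhibitor for full effect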
Target sequence (Q15139 whole entry, looked up): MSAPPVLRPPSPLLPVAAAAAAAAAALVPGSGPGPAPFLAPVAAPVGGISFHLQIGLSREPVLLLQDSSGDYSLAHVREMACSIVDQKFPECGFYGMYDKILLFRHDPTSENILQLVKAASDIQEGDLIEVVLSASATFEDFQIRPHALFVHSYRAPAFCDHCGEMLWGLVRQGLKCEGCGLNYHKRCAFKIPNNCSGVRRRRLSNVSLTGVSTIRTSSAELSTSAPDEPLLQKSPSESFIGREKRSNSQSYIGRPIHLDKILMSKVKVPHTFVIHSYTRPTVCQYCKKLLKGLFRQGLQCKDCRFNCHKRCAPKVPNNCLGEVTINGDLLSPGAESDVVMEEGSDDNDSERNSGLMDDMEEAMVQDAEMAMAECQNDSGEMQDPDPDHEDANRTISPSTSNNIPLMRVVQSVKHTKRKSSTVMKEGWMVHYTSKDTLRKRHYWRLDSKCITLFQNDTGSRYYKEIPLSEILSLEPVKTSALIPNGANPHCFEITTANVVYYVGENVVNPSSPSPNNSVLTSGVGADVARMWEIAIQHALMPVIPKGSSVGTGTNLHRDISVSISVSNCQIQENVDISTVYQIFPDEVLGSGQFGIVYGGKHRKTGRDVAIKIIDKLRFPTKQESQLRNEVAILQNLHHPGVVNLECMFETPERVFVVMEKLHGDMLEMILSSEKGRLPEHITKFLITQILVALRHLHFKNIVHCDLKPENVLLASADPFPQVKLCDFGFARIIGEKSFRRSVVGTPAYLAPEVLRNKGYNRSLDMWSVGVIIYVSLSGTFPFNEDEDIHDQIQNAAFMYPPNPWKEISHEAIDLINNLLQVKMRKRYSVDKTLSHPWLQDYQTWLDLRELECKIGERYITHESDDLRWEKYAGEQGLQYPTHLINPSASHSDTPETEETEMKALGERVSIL
GALR2 ag: agonists of human galanin receptor 2 (GALR2); O43603; GALR2-expressing cells, agonist activation read-out; activation, %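 (tested at 5 µM)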; hit rate 0.48% among 140,000; AID 803;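 active means above mean plus 3 SD of all compounds, about 5% in these data, not always enough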;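 further: 0% = vehicle buffer wells and 100% = reference agonist at full effect; tested in CHO reporter cells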
RGS16-Gao: RGS16-Galphao interaction regulator (human); O15492+P09471; bead-based flow cytometry RGS16-Galphao binding, fluorescence; actives lie on both sides; binding response (% of control), % at 10 µM; hit rate 0.38% among 220,000;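 active means below 25% or above 175%, edge rows of some plates excepted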;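 further: Galphao activated by GDP with aluminum fluoride before binding; 100% = wells without compound and 0% = beads without RGS; some results beyond the cut were filed as inactive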
INS promoter inh cell count: further read-out of INS promoter inh, marked with its call; normalized cell count, %; measured here: cell count, toxicity; reference of the scale not given here;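 cells exposed to compound for 48 h; stained nuclei by imaging scaled within each plate; lower means fewer cells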
HSV augment primary fold: further read-out of HSV augment, marked with its call; fold increase; compound at 10 µM; measured here: primary screen fold increase 10 uM; tested in PC3 cells;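 GFP signal in the first replicate; 1 = infected wells without compound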
Active calls of the source: *; i = inactive; ? = inconclusive; · = no result given.

molecule,HSV augment,HSV augment primary fold,INS promoter inh,INS promoter inh cell count,PKD1 kinase inh,GALR2 ag,RGS16-Gao
CC(=O)Nc1ccc(C(=O)/C=C/c2ccc[nH]2)cc1,i,0.98,·,·,·,·,102
O=C(NC1CCCCC1)C1CC(=O)N(c2cccc([N+](=O)[O-])c2)C1 (configuration not stated),i,1,·,·,-2,·,103
CN(C)c1ccc(C(=O)OCC(=O)NCC2CCCO2)cc1 (configuration not stated),i,0.86,·,·,-6,-0.4,83
COc1ccc(C(CCN2CCCC(C)C2)c2c(OC)cc(OC)c3c(-c4ccccc4)cc(=O)oc23)cc1 (configuration not stated),i,0.82,·,·,·,·,103
COC(=O)c1cn(NC(=O)c2cc([N+](=O)[O-])ccc2F)c(=O)c2ccccc12,i,0.63,·,·,-7,·,95
COc1ccc(NC(=S)NCCc2ccc(S(N)(=O)=O)cc2)c(OC)c1,i,0.97,-7,127,3,·,103
O=C(CSc1nnc(-c2ccc([N+](=O)[O-])cc2)o1)Nc1ccccn1,i,0.94,·,·,5,·,97
CC(C)OC(=O)CCC(=O)Nc1nc2ccccc2s1,i,1.2,7,113,8,-1.4,103
O=C(Cc1ccccc1)NC(NNc1ccccc1)(C(F)(F)F)C(F)(F)F,i,1.1,18,155,-5,-2.0,110
NC(=O)COC(=O)CC1CC2CCC1C2 (configuration not stated),i,1.1,41,62,0,·,100
O=C(c1cccc([N+](=O)[O-])c1)N1CCN(c2n[nH]c(=O)[nH]c2=O)CC1,i,0.89,·,·,·,·,96
COc1cccc(CNC(=S)Nc2cc(C)ccc2C)c1,i,0.98,·,·,-4,·,100
CC(=O)Nc1cccc(C(=O)N2CCN(Cc3ccccc3)CC2)c1,i,1,50,92,1,-2.7,145
CCc1cc[n+](C2=C([O-])c3ccccc3C(=O)/C2=N\S(=O)(=O)c2cccs2)cc1,i,0.62,-22,107,-12,0.4,76
O=C(CSc1ccc(-c2cccnc2)nn1)N1CCCC1,i,0.98,-58,73,-3,·,110
O=C(NCc1ccco1)c1c(O)c2cccc3c2n(c1=O)CCC3,i,0.8,-9,80,3,-1.4,102
CCCCc1cc(O)c(CCCC)c(O)c1,i,0.99,·,·,-14,9.8*,100
COc1ccccc1NC(=O)c1nnn(CC(=O)Nc2ccccc2)c1N,i,1,30,154,3,-1.4,105
COc1ccc(N=Cc2c(O)cc(C)oc2=O)cc1,i,1.1,-8,131,-4,·,98
C/C(CC(=O)Nc1ccc(Cl)cc1)=N\NC(=O)C(=O)N1CCCCC1,i,1,39,101,-4,·,119
Cc1ccc2cc3c(N)c(C(=O)Nc4c(C)[nH]c(=O)[nH]c4=O)sc3nc2c1,i,1.3,·,·,-6,-0.8,98
CCN(CC)CCCNC(=O)c1cc(-c2ccc(O)cc2)on1,i,0.96,·,·,-5,-2.2,102
COc1ccc([C@H]2[C@H](C(=O)C(C)(C)C)N3N=Cc4ccccc4C3[C@]23N=C(c2ccccc2)OC3=O)cc1 (some centres not stated),i,0.68,23,129,-4,-1.6,88
CC(C)NC(=O)CCCc1ccccc1,i,0.94,·,·,-2,-5.1,108
Cc1ccc(CN2C3=NCCN3c3ccccc32)cc1,i,1,-11,117,-3,·,97
CC(C)(C)c1nc2ccccc2c2nnc(SCC(=O)NCc3ccco3)n12,i,0.96,·,·,-1,-1.2,78
CCCC(=O)n1nc(-c2cccnc2)nc1NCc1ccc(OC)cc1,i,0.93,·,·,3,·,97
COc1ccc([N+](=O)[O-])cc1NC1C2CC3CC(C2)CC1C3 (configuration not stated),i,1.1,·,·,-3,0.2,105
Cc1cccc(N2CC(O)=C(c3nc4ccccc4n3C)C2=N)c1,i,1,50,150,0,0.3,96
CC(/C=N\NC(=O)CN1CCN(S(=O)(=O)c2ccc(C)cc2)CC1)=C\c1ccccc1,i,0.94,-26,99,3,-0.2,94
Cc1cc(C)n(-c2cc(N3CCOCC3)nc(-c3ccccc3)n2)n1,i,0.79,-8,175,-13,1.3,99
CCNC(=O)c1c(O)c2cccc3c2n(c1=O)CC3,i,0.93,7,62,-29,-0.2,103
Cc1ccc2nc(-c3ccc(S(=O)(=O)N4CCCCC4)cc3)cn2c1,i,0.93,·,·,4,·,97
COc1ccccc1CNC(=O)c1ccc2nc3[nH]c4ccccc4c3nc2c1,i,0.84,·,·,1,0.4,95
O=C(O)CCc1nn2c3ccccc3n(CC(=O)c3cccs3)c2nc1=O,i,1.1,-56,86,-1,·,103
COc1cccc(S(=O)(=O)Nc2ccc3sc(C)nc3c2)c1,i,0.75,-3,153,0,-1.2,59
CCOC(=O)C(NC(=O)c1ccc(F)cc1)(Nc1sc2c(c1C(N)=O)CCC2)C(F)(F)F (configuration not stated),?,·,8,156,-11,-1.3,145
Cc1ccc2oc(=O)c(/C=C(\O)c3ccccc3)nc2c1,i,0.95,55,67,5,·,95
O=C1c2ccccc2C(=O)N1CC1=CCS(=O)(=O)C1,i,1.1,·,·,-5,-1.4,79
C=CCNc1ncnc2c1cnn2-c1cccc(C)c1,i,1,·,·,-9,-0.4,78
CCOC(=O)C(NC(=O)c1ccccc1Cl)(Nc1ccc(C)c(C)c1)C(F)(F)F (configuration not stated),i,0.92,-177,141,-4,-0.4,97
CCS(=O)(=O)c1c([N+](=O)[O-])ncn1C,i,0.9,-54,84,-5,-2.9,110
O=C(Cn1cncn1)NCc1ccc(Cl)cc1,i,0.99,27,100,-2,-1.1,101
CC1(c2ccccc2)O[C@@H]2C[C@H]3[C@@H]4CCC5=CC(=O)C=C[C@]5(C)[C@@]4(F)[C@@H](O)C[C@]3(C)[C@]2(C(=O)CO)O1 (some centres not stated),i,1.1,·,·,·,·,102
COc1cc(/C=N/NC(=O)C(=O)NCc2ccco2)cc(Br)c1O,i,0.99,·,·,·,·,103
CCOC(=O)CNC(=O)CSc1nnc(SCC(=O)NCC(=O)OCC)s1,i,1.1,-36,109,-16,-1.6,123
Cc1cc(S(=O)(=O)N2CCN(C(=O)CCC(=O)N3CCOCC3)CC2)ccc1Br,i,0.93,·,·,·,·,97
COCCCNC(=O)c1cc2c(-c3ccc(Cl)cc3)nn(C)c2s1,i,0.81,·,·,0,-1.7,94
CCOC(=O)C1CCCN(Cc2cc(Br)c(OC)cc2OC)C1 (configuration not stated),i,0.96,14,96,1,0.2,157
C=C1C(=O)O[C@@H]2C[C@@H](C)[C@@H]3C=CC(=O)[C@@]3(C)[C@@H](OC(C)=O)[C@H]12,i,0.47,·,·,·,·,82
CCc1nnc(NC(=O)Cc2ccc(Br)cc2)s1,i,0.93,·,·,1,·,90
N#Cc1c(-c2ccccc2)cc2nc3ccccc3n2c1N,i,0.99,·,·,-7,0.4,103
COc1ccc(-c2[nH]nc(-c3ccccc3)c2-c2nc3ccccc3[nH]2)cc1,i,0.93,44,124,-3,0.0,101
Cc1ccc(C)c(OCCN2C(=O)NC3(CCc4ccccc4C3)C2=O)c1 (configuration not stated),i,0.89,-23,97,2,-0.6,91
COc1ccccc1NC(=O)Nc1ccc2c(c1)nc(C)n2C,i,0.97,18,62,-9,·,151
Cc1ccc(C(=O)NCC(=O)NCC(=O)OCC(=O)c2ccc(F)cc2)cc1,i,0.93,-54,132,-3,-2.6,69
CCOC(=O)C(NC(=O)c1cccc(Cl)c1)(Nc1sc2c(c1C(N)=O)CCC2)C(F)(F)F (configuration not stated),?,·,-10,126,4,0.9,98
CN(C)C(CNC(=O)c1ccc(NC(=O)CC#N)cc1)c1ccccc1 (configuration not stated),i,0.91,-36,75,-10,·,102
N#CCCCn1c(=O)oc2ccccc21,i,1,·,·,0,·,97
Cc1c(C(=O)C(=O)N2c3ccc(F)cc3CCC2C)c2ccccc2n1C (configuration not stated),i,0.72,-26,52,-8,-1.2,96

Reformatted with values under each structure: entries from further up
Value order – HSV augment	HSV augment primary fold	INS promoter inh	INS promoter inh cell count	PKD1 kinase inh	GALR2 ag	RGS16-Gao
C=C1C(=O)O[C@@H]2C[C@@H](C)[C@@H]3C=CC(=O)[C@@]3(C)[C@@H](OC(C)=O)[C@H]12
→ i	0.47	·	·	·	·	82
CCc1nnc(NC(=O)Cc2ccc(Br)cc2)s1
→ i	0.93	·	·	1	·	90
N#Cc1c(-c2ccccc2)cc2nc3ccccc3n2c1N
→ i	0.99	·	·	-7	0.4	103

(listing goes on)
molecule,HSV augment,HSV augment primary fold,INS promoter inh,INS promoter inh cell count,PKD1 kinase inh,GALR2 ag,RGS16-Gao
COc1ccc(/C=C/C(=O)Oc2ccc(C)c(C)c2)cc1OC,i,0.85,25,79,-4,·,104
O=S(=O)(Nc1ccc(-n2cccc2)cc1)c1ccccc1,i,0.89,3,137,-6,-3.6,181
CCN(CC)CC(=O)NC12CC3CC(CC(C3)C1)C2,i,0.84,-17,147,18,0.3,100
COc1cc(/C=C/C(=O)OCC(=O)Nc2ccc(S(=O)(=O)N3CCCC3)cc2)ccc1O,i,0.8,·,·,2,-0.8,100
COc1ccc(C(=O)Nc2nccs2)cc1[N+](=O)[O-],i,0.98,·,·,1,1.1,100
O=C(Cn1nnc2ccccc2c1=O)Nc1ccc2c(c1)CCC2,i,0.83,29,77,3,-3.2,99
Cc1ccccc1Cn1c(=N)n(CC(=O)c2ccc([N+](=O)[O-])cc2)c2ccccc21,i,0.98,14,108,-6,-0.2,97
COc1cc(N2CCCC2)ccc1[N+](=O)[O-],i,0.74,-8,92,-11,-0.5,104
Cc1cc(C)c2oc(-c3ccc(C)c(NC(=S)NC(=O)/C=C/c4ccco4)c3)nc2c1,i,1,26,124,-1,-2.8,96
CN(C)c1nc(C#N)nc(N(C)C)n1,i,0.94,-133,41,3,·,99
Cc1c(C(=O)N2CCN(C)CC2)oc2c1C(=O)CC(C)(C)C2,i,0.93,8,147,-10,-0.7,98
Cn1cccc1/C=C1\SC(=S)N(NC(=O)c2ccc(F)cc2)C1=O,i,1.2,·,·,·,·,87
O=C1CC(c2ccco2)CC(O)=C1C=NCC1NCCc2ccccc21 (configuration not stated),i,1,-17,141,-8,-0.6,101
CCCCC(=O)N1C/C=C\C(c2ccc(OC)cc2)N(Cc2ccc(F)cc2)C(=O)C1 (configuration not stated),i,0.96,·,·,·,·,104
Cc1ccc(C(=O)N/C(=C\c2sccc2C)C(=O)NCc2ccco2)cc1,i,0.91,-10,58,-9,-0.9,88
COc1cc(/C=C2/S/C(=N/S(=O)(=O)Cc3ccccc3)NC2=O)c([N+](=O)[O-])cc1OC,i,1.2,·,·,·,·,98
CCCc1nc2c(sc3nc4c(cc32)COC(C)(C)C4)c(=O)n1CCN(CC)CC,i,0.96,·,·,-8,·,99
O=C(NCc1ccccc1)c1cccc(COc2cc(Cl)ccc2Cl)c1,i,0.88,·,·,-10,0.1,104
O=C(N/N=C\c1c(O)ccc2ccccc12)c1ccc(S(=O)(=O)N2CCCCC2)cc1,i,1,47,42,-11,-2.3,66
Cc1cc(C(=O)N/N=C/c2cc(Br)ccc2OC(=O)c2ccccc2Cl)n[nH]1,i,0.66,·,·,2,·,105
Cc1ccc2nc(-c3ccccn3)cc(C(=O)Nc3ccc(S(=O)(=O)N4CCOCC4)cc3)c2c1,i,1,21,97,-3,·,92
O=C1/C(=C\c2cccnc2)CCc2ccccc21,·,·,·,·,-7,-2.0,99
Cc1cc2n(n1)C(c1sccc1C)Nc1c(C)cccc1-2 (configuration not stated),i,0.88,·,·,14,-1.6,103
COc1ccc(N/C=C/C(=O)c2ccc(Cl)cc2)cc1,i,1.1,·,·,-9,-0.6,61
COc1cc(/C=C/C(=O)OCC(=O)Nc2cc(S(=O)(=O)N(C)C)ccc2Cl)ccc1O,i,0.74,·,·,·,·,101
O=C(C1CCCO1)N1CCC(c2nc3ccccc3[nH]2)CC1 (configuration not stated),i,0.91,·,·,3,-0.5,112
CN(c1cccc(NC(=O)CN(c2cccc(Cl)c2)S(=O)(=O)c2ccccc2)c1)S(C)(=O)=O,i,0.96,·,·,-7,-0.4,104
CCN(C(=S)Nc1ccc(Oc2ccccc2)cc1)c1ccccc1,i,1,·,·,-4,0.0,82
O=C(O)CCn1cc(/C=C\C(=O)c2ccc(Cl)cc2)c(-c2cccc(Br)c2)n1,i,0.99,33,102,0,0.6,102
C/C(=N/NC(=O)c1ccncc1)c1c[nH]c2ccccc12,i,1.1,24,80,-7,·,102
